Screening results as filed in PubChem.
GIV Gai3 FP: GIV-Galpha-i interaction inhibition | P08753 | Galpha-i3/FITC-GIV peptide fluorescence polarization, 90 min; hits give low values; scaled: aluminum fluoride 0%, vehicle 100% | percent of control (FP), % (test concentration not listed) | 210,000 tested, 0.42% active;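 active means replicate mean at 85% of control or lower, very high polarization wells dropped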;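 further: wells of about 15 µL received 100 nL stock; the first replicate is given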
Target sequence (P08753 whole entry, looked up): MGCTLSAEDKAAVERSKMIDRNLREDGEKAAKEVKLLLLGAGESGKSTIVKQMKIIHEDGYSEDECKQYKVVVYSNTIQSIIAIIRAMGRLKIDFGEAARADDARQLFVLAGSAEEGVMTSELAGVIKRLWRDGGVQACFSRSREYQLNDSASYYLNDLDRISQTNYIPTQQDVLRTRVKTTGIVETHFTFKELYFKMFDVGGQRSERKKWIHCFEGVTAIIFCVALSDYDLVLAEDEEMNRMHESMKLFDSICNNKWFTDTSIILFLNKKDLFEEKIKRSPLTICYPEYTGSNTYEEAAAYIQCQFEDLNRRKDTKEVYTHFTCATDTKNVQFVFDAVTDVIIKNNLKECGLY
Sa growth 42C: S. aureus growth inhibition | S. aureus RN4220 growth, OD600, 20 h, 42 °C; hits give low values | AID 720641 | relative growth, % (no concentration beside the values) | 170,000 tested, 0.53% active;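 active means growth at 42 °C up to 50% and 20 or more points under that at 30 °C, or under 10% at both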;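 further: 300 nL library stock went into each well; scaled to the means of positive and negative controls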
HCMV NEC inh: inhibitors of HCMV UL50-UL53 nuclear egress complex interaction; HTRF UL50-UL53 interaction, normalized percent inhibition; inhibition, % (concentration not given with the values); 190,000 tested, 0.15% active; AID 1918969;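 active means both replicates at 50% or more, plus weaker picks with an unusually low signal ratio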;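 further: stock transfer was 100 nL into about 20 µL; 0% = negative control wells and 100% = wells with untagged competitor protein; inactives centre near -12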
Sa growth 42C second temp: further read-out of Sa growth 42C, marked with its call; relative growth, %; measured here: growth at 30 °C;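 optical density after 20 h as mean of two plates; 100% = untreated growth and lower means inhibition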
Active calls of the source: *; & = joins results of further samples.

How did CC(C)CSc1nnc(-c2nn(Cc3ccccc3)c(=O)c3ccccc23)o1 do in these assays?
Sa growth 42C: 78; HCMV NEC inh: -11; Sa growth 42C second temp: 91

Results for NNC(=S)c1cc(Cl)cc(Cl)c1 ?
GIV Gai3 FP: 102; Sa growth 42C: 67; HCMV NEC inh: -32; Sa growth 42C second temp: 36

What do the screens show for `CC1=CC(=C(C#N)c2nc3ccccc3s2)C=C(C)N1Cc1ccco1`?
Sa growth 42C: 91; HCMV NEC inh: -35; Sa growth 42C second temp: 82

What do the screens show for `C=CCNc1nc2ccccn2c(=O)c1/C=C1\SC(=S)N(CCOC)C1=O`?
GIV Gai3 FP: -75*; Sa growth 42C: 91; HCMV NEC inh: -33; Sa growth 42C second temp: 75

How did CCOC(=O)c1ccccc1NC(=O)NCc1c(-n2cccc2)sc2c1CCCC2 do in these assays?
GIV Gai3 FP: 100; Sa growth 42C: 129; HCMV NEC inh: 6; Sa growth 42C second temp: 93

Results for O=C(NC1CCCCC1)NC(c1ccc(Cl)cc1)c1nnc(-c2ccccc2)o1 (stereo not given) ?
GIV Gai3 FP: 107; Sa growth 42C: 113; HCMV NEC inh: -28; Sa growth 42C second temp: 82

What do the screens show for `CC(C)[C@H](NS(=O)(=O)c1ccc2c(c1)OCCO2)C(=O)N=c1sc2ccccc2n1C`?
Sa growth 42C: 85; HCMV NEC inh: 3; Sa growth 42C second temp: 75

What do the screens show for `N#Cc1cc2c(=O)n3ccccc3nc2n(-c2nnc(SCc3ccccc3F)s2)c1=O`?
GIV Gai3 FP: 94; Sa growth 42C: 106; HCMV NEC inh: -71; Sa growth 42C second temp: 88

What do the screens show for `Nc1ncc(Cc2cccc3ccccc23)s1`?
Sa growth 42C: 110; HCMV NEC inh: -30; Sa growth 42C second temp: 68

What do the screens show for `CCc1ccccc1NC(=O)Nc1ccc2c(c1)N(CC)C(=O)c1ccccc1S2`?
GIV Gai3 FP: 99; Sa growth 42C: 86; HCMV NEC inh: -9; Sa growth 42C second temp: 87

What do the screens show for `Cc1cc(C)cc(N(CC(=O)NCc2ccccc2Cl)S(=O)(=O)c2c(C)noc2C)c1`?
GIV Gai3 FP: 105; Sa growth 42C: 95; HCMV NEC inh: -30; Sa growth 42C second temp: 84

What do the screens show for `NS(=O)(=O)c1ccc(CCn2c(=S)[nH]c3c(sc4ccccc43)c2=O)cc1`?
GIV Gai3 FP: 98; Sa growth 42C: 111; Sa growth 42C second temp: 97

What do the screens show for `CCCN1CCN(C(=O)Cn2ncc3c4ccccc4n(Cc4c(C)cc(C)cc4C)c3c2=O)CC1`?
GIV Gai3 FP: 103; Sa growth 42C: 99; HCMV NEC inh: -2; Sa growth 42C second temp: 79

Results for Cc1ccccc1C(=O)N1N=C(c2ccc(F)cc2)CC1(O)C(F)(F)F (stereo not given) ?
GIV Gai3 FP: 102; HCMV NEC inh: -2

What do the screens show for `Nc1nc(C(F)(F)F)nn1C(=O)c1ccc(Br)cc1`?
Sa growth 42C: 96; HCMV NEC inh: -3; Sa growth 42C second temp: 95

How did Cc1noc(C)c1S(=O)(=O)N1CCCC1c1ccc2c(c1)OCCCO2 (stereo not given) do in these assays?
Sa growth 42C: 105; HCMV NEC inh: 6; Sa growth 42C second temp: 98

What do the screens show for `CCCNC(=O)Nc1ccccc1N1CCCCC1`?
Sa growth 42C: 93; HCMV NEC inh: -15; Sa growth 42C second temp: 97

Results for COC(=O)C1(C(F)(F)F)N=C2C=CC=CN2C(c2ccco2)=N1 (stereo not given) ?
GIV Gai3 FP: 113; Sa growth 42C: 98; HCMV NEC inh: -14; Sa growth 42C second temp: 96

What do the screens show for `CCCCN(C)S(=O)(=O)c1c[nH]c(-c2nnc(CC)o2)c1`?
GIV Gai3 FP: 105; HCMV NEC inh: -29

What do the screens show for `COc1cccc(C(=O)N(Cc2ccc(C)o2)C2CCS(=O)(=O)C2)c1` (stereo not given)?
GIV Gai3 FP: 102; Sa growth 42C: 111; HCMV NEC inh: -9; Sa growth 42C second temp: 89

What do the screens show for `Nc1nccnc1C(=O)OCc1cc(=O)oc2ccc3ccccc3c12`?
Sa growth 42C: 90; HCMV NEC inh: -40; Sa growth 42C second temp: 93

What do the screens show for `Cc1cc(C2=NNC(=NC3CC3)SC2)c(C)n1Cc1ccco1`?
Sa growth 42C: 111; HCMV NEC inh: -22; Sa growth 42C second temp: 67

Results for COC(=O)C1=C(C)N=C2SCC(=O)N2C1c1ccccc1 (stereo not given) ?
GIV Gai3 FP: 102; Sa growth 42C: 93; HCMV NEC inh: -32; Sa growth 42C second temp: 85

Results for CCc1ccc(NCc2cc3cc4c(cc3n(CC(=O)Nc3ccccc3C)c2=O)OCCO4)cc1 ?
GIV Gai3 FP: 97; Sa growth 42C: 68; Sa growth 42C second temp: 88

What do the screens show for `Cc1ccc(C(=O)N(Cc2nc(-c3ccc(C)cc3)no2)C(C)C)cc1`?
GIV Gai3 FP: 102; Sa growth 42C: 118; HCMV NEC inh: -2; Sa growth 42C second temp: 85

What do the screens show for `Cc1ccccc1C(=O)Nc1sc2c(c1C(=O)NCc1ccco1)CCC(C(C)(C)C)C2` (stereo not given)?
GIV Gai3 FP: 107; Sa growth 42C: 99; HCMV NEC inh: 2; Sa growth 42C second temp: 100

Results for O=C(NCCc1ccc(Cl)cc1)c1cnc2sc(N3CCCCC3)nn2c1=O ?
GIV Gai3 FP: 100&99; Sa growth 42C: 78; HCMV NEC inh: -12; Sa growth 42C second temp: 89

Results for Cc1cc(C(=O)N2CCN(c3cccc(C)c3C)CC2)c2c(C)nn(-c3ccccc3)c2n1 ?
GIV Gai3 FP: 100; Sa growth 42C: 96; Sa growth 42C second temp: 103

How did Cc1nccn1CC(O)Cn1c2ccc(Br)cc2c2cc(Br)ccc21 (stereo not given) do in these assays?
GIV Gai3 FP: 99; Sa growth 42C: 116; HCMV NEC inh: 8; Sa growth 42C second temp: 117

What do the screens show for `CSc1nnnn1-c1ccc(S(=O)(=O)N(C)C)cc1`?
GIV Gai3 FP: 103; Sa growth 42C: 103; HCMV NEC inh: -4; Sa growth 42C second temp: 72

Results for COc1ccc(CNc2ncnc3c2c(-c2ccccc2)cn3-c2cccc(C)c2)cc1 ?
GIV Gai3 FP: 103; Sa growth 42C: 78; Sa growth 42C second temp: 90

How did CCc1ccc(N=c2oc3c(C)ncc(CO)c3cc2C(N)=O)cc1 do in these assays?
GIV Gai3 FP: 103; Sa growth 42C: 92; Sa growth 42C second temp: 91

Results for Nc1c2c(nc3ccccc13)N(C1CCCCC1)CC2 ?
GIV Gai3 FP: 115; Sa growth 42C: 76; Sa growth 42C second temp: 61

What do the screens show for `O=C1NN(c2ccccc2)C(=O)/C1=C/c1ccc(SC2CCCCC2)o1`?
GIV Gai3 FP: 111; Sa growth 42C: 92; Sa growth 42C second temp: 88

What do the screens show for `Cc1ccc(SCc2nc3ccccc3[nH]2)cc1`?
GIV Gai3 FP: 102; HCMV NEC inh: 3

How did Cc1nc(SCN2C(=O)c3ccccc3C2=O)n[nH]1 do in these assays?
GIV Gai3 FP: 106; Sa growth 42C: 80; HCMV NEC inh: -20; Sa growth 42C second temp: 82

What do the screens show for `COCCn1cc(C(=O)N2CCC(C)CC2)c2c3ccccc3n(C)c2c1=O`?
GIV Gai3 FP: 106; Sa growth 42C: 93; Sa growth 42C second temp: 87

Results for CC(=O)NCC(c1ccc(N(C)C)cc1)N1CCCC1 (stereo not given) ?
GIV Gai3 FP: 108; HCMV NEC inh: -32

Results for CCOC(=O)c1c(C)[nH]c(C)c1C(=O)COC(=O)c1cccc(S(=O)(=O)NC)c1 ?
Sa growth 42C: 102; HCMV NEC inh: -5; Sa growth 42C second temp: 93

Results for O=C1/C(=C\O)CCc2occc21 ?
GIV Gai3 FP: 95; Sa growth 42C: 91; HCMV NEC inh: 4; Sa growth 42C second temp: 79

No new results follow: entries from further up.
How did CC(C)CSc1nnc(-c2nn(Cc3ccccc3)c(=O)c3ccccc23)o1 do in these assays?
Sa growth 42C: 78; HCMV NEC inh: -11; Sa growth 42C second temp: 91

Results for NNC(=S)c1cc(Cl)cc(Cl)c1 ?
GIV Gai3 FP: 102; Sa growth 42C: 67; HCMV NEC inh: -32; Sa growth 42C second temp: 36

What do the screens show for `CC1=CC(=C(C#N)c2nc3ccccc3s2)C=C(C)N1Cc1ccco1`?
Sa growth 42C: 91; HCMV NEC inh: -35; Sa growth 42C second temp: 82

What do the screens show for `C=CCNc1nc2ccccn2c(=O)c1/C=C1\SC(=S)N(CCOC)C1=O`?
GIV Gai3 FP: -75*; Sa growth 42C: 91; HCMV NEC inh: -33; Sa growth 42C second temp: 75

How did CCOC(=O)c1ccccc1NC(=O)NCc1c(-n2cccc2)sc2c1CCCC2 do in these assays?
GIV Gai3 FP: 100; Sa growth 42C: 129; HCMV NEC inh: 6; Sa growth 42C second temp: 93

Results for O=C(NC1CCCCC1)NC(c1ccc(Cl)cc1)c1nnc(-c2ccccc2)o1 (stereo not given) ?
GIV Gai3 FP: 107; Sa growth 42C: 113; HCMV NEC inh: -28; Sa growth 42C second temp: 82

(listing goes on)
What do the screens show for `CCCSc1nn(C)c2nc3c(c(=O)n12)C(C)(CC)Cc1ccccc1-3` (stereo not given)?
GIV Gai3 FP: 101; HCMV NEC inh: -2

Results for COc1cccc(Cn2c(=O)n(CC3CCC(C(=O)NC(C)C)CC3)c(=O)c3sccc32)c1 (stereo not given) ?
GIV Gai3 FP: 100; Sa growth 42C: 70; Sa growth 42C second temp: 92

Results for O=S(=O)(NCC(c1ccccc1)n1cc(-c2ccccc2)nn1)c1ccc(Cl)cc1 (stereo not given) ?
GIV Gai3 FP: 103; Sa growth 42C: 105; Sa growth 42C second temp: 89

How did COc1ccccc1OC(C)C(=O)Nc1c(C(=O)c2ccc(Cl)cc2)oc2ccccc12 (stereo not given) do in these assays?
GIV Gai3 FP: 108; Sa growth 42C: 107; HCMV NEC inh: 3; Sa growth 42C second temp: 94

How did CCC(C)n1ncn(-c2ccc(N3CCN(c4ccc(OC)cc4)CC3)cc2)c1=O (stereo not given) do in these assays?
Sa growth 42C: 82; HCMV NEC inh: -15; Sa growth 42C second temp: 83

Results for COc1ccccc1N1CCN(C(=O)CCn2cnc3ccccc3c2=O)CC1 ?
GIV Gai3 FP: 99; HCMV NEC inh: -15

What do the screens show for `c1ccc(CN2CCCC2)nc1`?
GIV Gai3 FP: 99; Sa growth 42C: 98; HCMV NEC inh: -5; Sa growth 42C second temp: 88

What do the screens show for `Cc1ccc(-[n+]2cc(NC(=O)/C(C#N)=C/c3ccccc3)on2)cc1`?
Sa growth 42C: 66; HCMV NEC inh: -30; Sa growth 42C second temp: 91

How did N#Cc1c(Cl)cccc1NCc1cccs1 do in these assays?
GIV Gai3 FP: 103; Sa growth 42C: 128; HCMV NEC inh: 6; Sa growth 42C second temp: 108

Results for COC(=O)c1n[nH]c2c1CCC2 ?
GIV Gai3 FP: 104; Sa growth 42C: 107; HCMV NEC inh: -14; Sa growth 42C second temp: 90

What do the screens show for `c1ccc2c(c1)OC1OC2Oc2ccccc21`?
GIV Gai3 FP: 104; Sa growth 42C: 130; HCMV NEC inh: -2; Sa growth 42C second temp: 127

How did N=C1N=C2N=CC=CN2Cc2ccccc21 do in these assays?
Sa growth 42C: 103; HCMV NEC inh: -12; Sa growth 42C second temp: 99

Results for COC(=O)c1c(SCC(=O)Nc2ccccc2OC)[nH]c2ccccc2c1=O ?
GIV Gai3 FP: 98; Sa growth 42C: 88; Sa growth 42C second temp: 86

Results for CN1C(=O)c2cc3ccccc3n2CC1(C)C(=O)NCC(=O)N1CCOCC1 (stereo not given) ?
GIV Gai3 FP: 102; HCMV NEC inh: -13

What do the screens show for `NS(=O)(=O)c1ccc(NC(=O)CC2(CC(=O)O)CCCC2)cc1`?
GIV Gai3 FP: 97; Sa growth 42C: 91; HCMV NEC inh: -18; Sa growth 42C second temp: 88

What do the screens show for `O=C(Nc1ccc(S(=O)(=O)Nc2nccs2)cc1)c1sc2ccccc2c1Cl`?
GIV Gai3 FP: 98; HCMV NEC inh: -13

How did CN(C)CCCOc1nn(Cc2ccccc2)c2ccccc12 do in these assays?
GIV Gai3 FP: 103; Sa growth 42C: 109&89; HCMV NEC inh: -30&-50&-16&-3; Sa growth 42C second temp: 108&91

What do the screens show for `Cc1cc(S(=O)(=O)Nc2ccc3oc4c(c3c2)CC(C(C)(C)C)CC4)ccc1Cl` (stereo not given)?
GIV Gai3 FP: 98; Sa growth 42C: 90; Sa growth 42C second temp: 93

How did Cc1c(C(=O)OC(C)C#N)oc2c1ccc1ccccc12 (stereo not given) do in these assays?
Sa growth 42C: 96; HCMV NEC inh: -3; Sa growth 42C second temp: 96

What do the screens show for `O=C(CCCN1C(=O)c2ccccc2C1=O)N1CCCCCC1`?
GIV Gai3 FP: 99; Sa growth 42C: 108; HCMV NEC inh: -20; Sa growth 42C second temp: 89

How did CCCc1cc(=O)[nH]c(SCc2cc(=O)oc3cc(C)ccc23)n1 do in these assays?
Sa growth 42C: 107; HCMV NEC inh: -6; Sa growth 42C second temp: 95

Results for COc1cc(CC(=O)OC2CCOC2=O)cc(OC)c1OC (stereo not given) ?
Sa growth 42C: 86; HCMV NEC inh: -4; Sa growth 42C second temp: 100

Results for CNC(=O)C1CCN(C(=O)N2CCOc3ccccc32)CC1 ?
GIV Gai3 FP: 107; Sa growth 42C: 113; Sa growth 42C second temp: 96
